Source: PubChem BioAssay (National Center for Advancing Translational Sciences (NCATS))
GLA inh pH 4.5: blocks human alpha-galactosidase A at pH 4.5. purified enzyme, 4-MU-alpha-Gal fluorescence, pH 4.5. 230,000 tested, under 10 active. AID 1467. activity change, negative = inhibition, % at 105 µM. P06280; inconclusive = small, poorly fitted or top-dose-only inhibition, or a rising curve; inactive = flat fitted curve, though single readings scatter; no compound was filed as active;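 further: 0% = full activity with enzyme and -100% = basal without enzyme; dose as in the result columns while the protocol names 77 µM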
Rango complex inh: Rango-importin beta binding inhibition. 340,000 compounds, 0.031% hits. Potency, µM (top dose mostly 92.2 µM), for inactives: at the highest dose inhibition of complex formation. Rango CFP/YFP FRET sensor + importin beta, 45 min. AID 540263; active = rising FRET ratio curve, often small or poorly fitted; inconclusive = mostly compound fluorescence or quenching in the first reads; inactive = flat curves in all reads;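 further: potency means the concentration at half of the fitted maximal effect; 0% = DMSO wells and 100% = buffer wells lacking importin beta; nearly all actives have a fitted effect of over 15% in size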
Target sequence (Q14974 whole entry, looked up): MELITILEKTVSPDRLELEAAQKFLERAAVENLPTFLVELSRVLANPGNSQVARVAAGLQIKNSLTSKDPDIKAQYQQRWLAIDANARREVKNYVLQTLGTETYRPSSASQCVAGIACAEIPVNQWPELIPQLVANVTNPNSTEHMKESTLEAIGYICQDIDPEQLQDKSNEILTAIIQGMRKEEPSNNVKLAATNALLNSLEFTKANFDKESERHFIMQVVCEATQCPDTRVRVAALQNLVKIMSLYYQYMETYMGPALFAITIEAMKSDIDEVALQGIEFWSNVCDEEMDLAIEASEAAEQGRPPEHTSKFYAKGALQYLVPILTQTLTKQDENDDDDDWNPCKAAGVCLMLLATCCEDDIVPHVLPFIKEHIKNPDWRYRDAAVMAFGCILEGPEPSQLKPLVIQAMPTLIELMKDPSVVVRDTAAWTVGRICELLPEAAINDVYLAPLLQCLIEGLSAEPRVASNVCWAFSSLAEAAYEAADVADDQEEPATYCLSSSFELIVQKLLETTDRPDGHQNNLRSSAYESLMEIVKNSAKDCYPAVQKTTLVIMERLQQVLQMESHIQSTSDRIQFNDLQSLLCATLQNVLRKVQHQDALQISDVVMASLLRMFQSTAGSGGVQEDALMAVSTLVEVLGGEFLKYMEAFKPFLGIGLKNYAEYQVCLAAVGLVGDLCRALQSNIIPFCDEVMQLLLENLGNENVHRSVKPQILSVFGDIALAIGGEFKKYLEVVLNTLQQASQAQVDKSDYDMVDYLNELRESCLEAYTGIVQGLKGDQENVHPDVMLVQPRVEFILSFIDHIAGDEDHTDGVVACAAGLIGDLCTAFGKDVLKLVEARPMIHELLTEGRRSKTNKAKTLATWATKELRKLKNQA
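FRET biosensor Rango (snurportin 1 IBB between N-terminal EYFP and C-terminal Cerulean), 50 nM in PBS/1 mM DTT/0.02% Tween-20/0.1% BSA, preincubated 5 min RT with compound; 0.125 microM importin beta added, 45 min RT, CFP/YFP FRET ratio read.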
Rango release inh: prevents RanGTP from dissociating the Rango-importin beta complex | 340,000 compounds, 0.071% hits | Potency, µM (titrated, usually from 46.1 µM), without a hit: at the highest dose activity change, negative = inhibition | Biochemical FRET Rango-importin beta, RanGTP-induced dissociation | AID 540253; active means falling FRET ratio curve, often poorly fitted, with flat reads before Ran was added; inconclusive means other falling curves, or compound fluorescence or quenching; inactive means flat or rising ratio curve;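 further: potency means the concentration at half of the fitted maximal effect; % of control where 0% means no effect; nearly all actives have a fitted effect of over 45% in size; -100% = wells without RanGTP and RCC1; the record marks most hits as doubtful in a second field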
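Quantitative HTS using a FRET biosensor: 0.1 uM Rango, 0.25 uM importin beta, 0.6 uM Ran, 2 mM GTP, 0.2 uM RCC1 final, PBS with DTT, Tween-20 and BSA. Post-read taken 45 min after Ran addition.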
miR-21 FLuc: miR-21 reporter, rising signal; HeLa miR-21 FLuc reporter, luciferase, 48 h; Potency, µM (top dose mostly 38.3 µM), without a hit: top-dose reporter change, positive = more light; 340,000 tested, under 10 active; AID 2288; active = well fitted rising curve with a large enough effect; inconclusive = small, poorly fitted or top-dose-only effect; inactive = no such curve, though single readings can be large or run the other way;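 further: % of control where 0% means no effect; miR-21 action dims this reporter so a rising signal means less miR-21 action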
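HeLa miR-21-FLuc reporter line, endogenous miR-21; 2000 cells/well in DMEM/10% FBS; compound titration up to ~40uM final, 48 h, 37 degree Celsius; luciferase detection reagent, 15 min lysis, CCD luminescence.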
* marks the source's active call; other numbers are inactive results; ? = inconclusive; . = no result given; & = joins results of further samples; [ ] = remark or other dose.

SMILES	GLA inh pH 4.5	Rango complex inh	Rango release inh	miR-21 FLuc
Nc1cc(Cl)ccc1C(=O)OCC(=O)NCC1CCCO1 (stereo not given)	.	0.3%	-7.7%	.
Cc1ccc(/C=C(\C#N)C(=O)Nc2cccc(C)n2)cc1	.	?	-10.2%	-5.6%
CCCC(=O)n1nc(-c2cccnc2)nc1NCc1ccc(OC)cc1	-7.2[21.1 µM]	4.9%	38.5%	-1.7%&-5.3%
CNC(=O)c1cc(S(=O)(=O)N2CC(C)OC(C)C2)ccc1N1CCOCC1 (stereo not given)	.	1.5%	0.2%	0.0%
CSc1ccc(CN(C)C(=O)c2cccc(S(=O)(=O)N3CCN(Cc4ccccc4)CC3)c2)cc1	.	0.0%	0.2%	.
COc1ccc([N+](=O)[O-])cc1NC1C2CC3CC(C2)CC1C3 (stereo not given)	-21.1	-0.3%	-7.7%	-11.8%
Cc1ccc(CN2C3=NCCN3c3ccccc32)cc1	6.5	-1.2%	14.0%	-0.2%
CC(C)(C)c1nc2ccccc2c2nnc(SCC(=O)NCc3ccco3)n12	14.0	1.9%	-0.2%	-5.6%
O=[N+]([O-])c1ccccc1OCCCN1CCc2ccccc2C1	.	0.0%	13.1%	-17.9%
CCNC(=O)c1c(O)c2cccc3c2n(c1=O)CC3	-4.6	4.4%	4.4%	-2.0%
Cc1cc(C)n(-c2cc(N3CCOCC3)nc(-c3ccccc3)n2)n1	-14.5	?	10.8%	-6.9%
Cc1ccc2nc(-c3ccc(S(=O)(=O)N4CCCCC4)cc3)cn2c1	0.3	-4.5%	8.1%	-32.3%
COc1ccccc1CNC(=O)c1ccc2nc3[nH]c4ccccc4c3nc2c1	3.8	?	-15.0%	-3.0%
Cc1cccc(OCC(=O)Nc2ccccc2N2CCN(C)CC2)c1	.	2.8%	-2.0%	-2.0%
O=S(=O)(/C=C/c1ccccc1)N1CCOCC1	.	5.0%	21.2%	1.4%
O=C(O)CCc1nn2c3ccccc3n(CC(=O)c3cccs3)c2nc1=O	0.7	-2.2%	-2.3%	0.1%
COc1cccc(S(=O)(=O)Nc2ccc3sc(C)nc3c2)c1	1.7	1.5%	0.1%	1.8%
Cc1cccc(N2CC(O)=C(c3nc4ccccc4n3C)C2=N)c1	2.5	?	14.9%	-13.9%
Cn1nnc(NC(=S)NC(=O)c2cccc3c(Cl)cccc23)n1	.	0.0%	5.2%	-4.2%
CC(/C=N\NC(=O)CN1CCN(S(=O)(=O)c2ccc(C)cc2)CC1)=C\c1ccccc1	-0.5	-1.8%	-0.5%	-4.2%
O=C(CN1C(=O)C2C3C=CC(C3)C2C1=O)OCC(=O)c1ccc(Cl)c([N+](=O)[O-])c1 (stereo not given)	.	0.8%	-9.1%	.
CCOC(=O)C(NC(=O)c1ccc(F)cc1)(Nc1sc2c(c1C(N)=O)CCC2)C(F)(F)F (stereo not given)	-2.0	-2.1%	12.3%	-17.0%
COCC(=O)N(C)CC1CCCN(CCc2ccccc2OC)C1 (stereo not given)	.	3.8%	15.7%	0.9%
O=C1c2ccccc2C(=O)N1CC1=CCS(=O)(=O)C1	4.7	0.1%	9.2%	-1.5%
Cc1ccc2oc(=O)c(/C=C(\O)c3ccccc3)nc2c1	-7.4	?	?	-50.8%
Cc1ccc2nc(-c3ccccn3)cc(C(=O)Nc3ccc(S(=O)(=O)N4CCOCC4)cc3)c2c1	-12.6	0.6%	-3.7%	-0.7%
Cc1cc2n(n1)C(c1sccc1C)Nc1c(C)cccc1-2 (stereo not given)	-1.9	1.7%	-10.0%	-17.2%
O=C1/C(=C\c2cccnc2)CCc2ccccc21	-7.9	0.7%	-4.2%	8.9%
O=C(N/N=C\c1c(O)ccc2ccccc12)c1ccc(S(=O)(=O)N2CCCCC2)cc1	-8.7	?	?	15.3%
O=C(NCc1ccccc1)c1cccc(COc2cc(Cl)ccc2Cl)c1	-9.7	-3.4%	-14.6%	-72.5%
CSCC[C@H](NC(=O)c1cc2c([nH]c3ccccc32)c(-c2ccccc2)n1)C(=O)O	.	1.2%	0.2%	-4.1%
CCN(CC)C(=O)Cn1cc(C(=O)C(=O)N2CCN(Cc3ccc4c(c3)OCO4)CC2)c2ccccc21	.	0.3%	-8.3%	-2.9%
NC(=O)c1ccc(NC(=O)Cc2ccc(S(=O)(=O)N3CCCCC3)cc2)cc1	.	2.8%	-4.0%	.
Cc1cc(C(=O)N/N=C/c2cc(Br)ccc2OC(=O)c2ccccc2Cl)n[nH]1	11.7	-0.4%	-21.2%	17.4%
O=C(C1CCCO1)N1CCC(c2nc3ccccc3[nH]2)CC1 (stereo not given)	-1.6	4.3%	3.0%	-2.9%
c1ccc2sc(N3CCCCC3)nc2c1	.	11.6%	-4.8%	.
O=C(C1CCC(=O)N(C2CCCC2)C1)N1CCN(Cc2cccc(F)c2)CC1 (stereo not given)	.	-2.2%	-2.7%	-1.5%
COc1ccc(N/C=C/C(=O)c2ccc(Cl)cc2)cc1	4.6	?	?	-94.2%
COc1cc(/C=C/C(=O)OCC(=O)Nc2cc(S(=O)(=O)N(C)C)ccc2Cl)ccc1O	8.2	?	?	-0.3%
Cc1ccc(OCC(=O)Nc2ccncc2)c(C)c1	.	-0.5%	0.4%	-11.7%
CN(c1cccc(NC(=O)CN(c2cccc(Cl)c2)S(=O)(=O)c2ccccc2)c1)S(C)(=O)=O	-4.5	0.4%	2.1%	-2.1%
CCN(C(=S)Nc1ccc(Oc2ccccc2)cc1)c1ccccc1	-0.1	0.2%	-4.0%	-5.3%
O=C(O)CCn1cc(/C=C\C(=O)c2ccc(Cl)cc2)c(-c2cccc(Br)c2)n1	0.8	1.7%	-8.9%	2.0%
C/C(=N/NC(=O)c1ccncc1)c1c[nH]c2ccccc12	-2.5	0.1%	-8.8%	-0.3%
Cc1ccc(C(C)C)c(OCC(=O)OCC(=O)NC2CCS(=O)(=O)C2)c1 (stereo not given)	.	-0.2%	-0.3%	.
O=C1NC(Cc2ccccc2)C(=O)N1CC(=O)N1CCCc2ccccc21 (stereo not given)	3.1	-1.4%	1.6%	-0.6%
Cc1c(C(=O)N(C)CCCCN2CCOCC2)oc2c(F)cccc12	.	2.7%	-13.0%	-15.0%
N#C/C(=C\c1ccccc1Br)C(=O)NC1CC1	.	4.0%	3.1%	-9.2%
O=C(Nc1ccc(OCc2ccccc2)cc1)Nc1ccccc1C(=O)NCCCN1CCOCC1	-1.6	-2.8%	31.1%	-13.4%
CCN(CC)C(=O)Cn1cnc2sc(C(=O)N3CCN(Cc4ccc5c(c4)OCO5)CC3)c(C)c2c1=O	13.8	-2.5%	1.4%	15.7%
CC(C)NC(=O)c1ccc(C2SCC(=O)N2Cc2ccccc2)cc1 (stereo not given)	-1.7	3.0%	-0.9%	-3.0%
COc1ccc(C(=O)NC(CCSC)C(=O)NC2CC2)cc1 (stereo not given)	.	-0.2%	-6.1%	.
N#CCCCn1c(=O)oc2ccccc21	-9.6	1.8%	12.0%	-2.3%
Cc1c(C(=O)C(=O)N2c3ccc(F)cc3CCC2C)c2ccccc2n1C (stereo not given)	-6.0	-0.8%	-14.7%	19.4%
COc1ccc(/C=C/C(=O)Oc2ccc(C)c(C)c2)cc1OC	-1.5	-0.7%	-2.2%	-8.0%
O=S(=O)(Nc1ccc(-n2cccc2)cc1)c1ccccc1	2.8	-0.7%	-1.9%	-3.3%
COc1cccc(C(=O)NNC(=O)c2ccccc2)c1	.	-1.7%	-27.9%	-47.1%
CN(C)C(CNC(=O)c1ccc(NC(=O)CC#N)cc1)c1ccccc1 (stereo not given)	2.3	?	-23.9%	-7.4%
COc1cc(/C=C/C(=O)OCC(=O)Nc2ccc(S(=O)(=O)N3CCCC3)cc2)ccc1O	-12.8	?	?	-0.2%
COc1ccc(C(=O)Nc2nccs2)cc1[N+](=O)[O-]	1.3	-0.2%	35.0%	-35.0%
Other entries follow.
SMILES	GLA inh pH 4.5	Rango complex inh	Rango release inh	miR-21 FLuc
O=C(Cn1nnc2ccccc2c1=O)Nc1ccc2c(c1)CCC2	-2.9	2.6%	-8.4%	-21.6%
COc1cc(N2CCCC2)ccc1[N+](=O)[O-]	4.4	0.1%	-1.5%	-6.5%
Cc1ccccc1Cn1c(=N)n(CC(=O)c2ccc([N+](=O)[O-])cc2)c2ccccc21	1.8	2.4%	-20.3%	1.1%
CCN(CC)CC(=O)NC12CC3CC(CC(C3)C1)C2	-7.2	1.6%	3.9%	-4.4%
O=C1CC(c2ccco2)CC(O)=C1C=NCC1NCCc2ccccc21 (stereo not given)	-6.9	?	?	-3.8%
CN(C)c1nc(C#N)nc(N(C)C)n1	-6.2	-2.9%	6.0%	2.9%
Cc1cc(C)c2oc(-c3ccc(C)c(NC(=S)NC(=O)/C=C/c4ccco4)c3)nc2c1	-2.0	-2.5%	0.3%	-28.0%
Cc1cccc(NC(=O)c2cc(S(=O)(=O)N3CCOCC3)cn2C)c1C	.	-1.9%	40.5%	-1.8%
Cc1c(C(=O)N2CCN(C)CC2)oc2c1C(=O)CC(C)(C)C2	-3.6	-0.1%	0.2%	-2.8%
CCc1ccc(NC(=O)C(=O)NNC(=O)c2cccs2)cc1	.	-4.3%	5.2%	-32.9%
Cn1cccc1/C=C1\SC(=S)N(NC(=O)c2ccc(F)cc2)C1=O	0.9	?	?	-2.0%
CCCc1nc2c(sc3nc4c(cc32)COC(C)(C)C4)c(=O)n1CCN(CC)CC	-3.6	0.3%	0.0%	-1.1%
CC(C)=CCc1ccc(O)c(=O)cc1C(C)C	.	-1.0%	-24.9%	.
Cn1nc(-c2ccccc2)c2cc([N+](=O)[O-])ccc21	.	-0.4%	14.4%	-9.8%
COc1ccc(/C=C2/CSC/C(=C/c3ccc(OC)c(OC)c3)C2=O)cc1OC	.	3.4%	-10.9%	.
CCN(C(=O)COC(=O)C1CCN(S(=O)(=O)c2ccc(C)c(C)c2)CC1)C1CCCCC1	.	0.8%	3.7%	.
CCCn1c(SC(C)C(=O)NC2CCCC2)n[nH]c1=O (stereo not given)	.	5.1%	-10.4%	.
CCCCC(=O)N1C/C=C\C(c2ccc(OC)cc2)N(Cc2ccc(F)cc2)C(=O)C1 (stereo not given)	6.2	-0.9%	-15.7%	3.0%
CCc1cccc(OCCOC(=O)CNS(=O)(=O)c2ccc(NC(C)=O)cc2)c1	.	?	19.5%	.
Cc1ccc(C(=O)N/C(=C\c2sccc2C)C(=O)NCc2ccco2)cc1	7.8	5.2%	-0.8%	-5.4%
COc1cc(/C=C2/S/C(=N/S(=O)(=O)Cc3ccccc3)NC2=O)c([N+](=O)[O-])cc1OC	-1.8	?	-9.1%	-10.2%
COC(=O)C1=C(C)n2cnnc2NC1c1ccc(Cl)cc1 (stereo not given)	0.6	-0.3%	2.6%	-6.5%
CCOc1ccccc1NC(=O)CCC(=O)Nc1ccccc1OCC	4.9	0.8%	35.3%	1.6%
CCN(CC)S(=O)(=O)c1ccc(OC)c(NC(=S)Nc2cccc(C)c2C)c1	-3.0	1.4%	5.1%	-2.5%
O=C(O)C(NS(=O)(=O)c1ccccc1)C(O)c1ccccc1 (stereo not given)	.	2.0%	0.0%	-0.6%
CCc1ccc(-c2nnn(CC(=O)N(C3CCCC3)C3CCS(=O)(=O)C3)n2)cc1 (stereo not given)	.	4.9%	?	.
O=CN1CCC(=O)N(Cc2ccccc2)c2ccccc21	3.1	2.6%	-2.0%	-2.8%
CNS(=O)(=O)c1cccc(C(=O)NC2CCCc3ccccc32)c1 (stereo not given)	.	0.8%	16.2%	-0.2%
CC(NC(=O)c1ccc(N2CCCC2=O)cc1)c1ccccc1 (stereo not given)	6.4	0.8%	22.6%	-15.0%
CC(C)c1ccc(NC(=O)COc2nnc(-c3cccs3)c(-c3cccs3)n2)cc1	-0.7	0.0%	4.2%	0.2%

An excerpt from above in order of the miR-21 FLuc value, descending:
| canonical_smiles | miR-21 FLuc |
| --- | --- |
| CCCCC(=O)N1C/C=C\C(c2ccc(OC)cc2)N(Cc2ccc(F)cc2)C(=O)C1 (stereo not given) | 3.0% |
| CC(C)c1ccc(NC(=O)COc2nnc(-c3cccs3)c(-c3cccs3)n2)cc1 | 0.2% |
| Cc1ccc(C(=O)N/C(=C\c2sccc2C)C(=O)NCc2ccco2)cc1 | -5.4% |

Only part of the results is shown (hit frequency here may not be typical).
